From PubChem BioAssay
Cruzain Triton – cruzain (T. cruzi) inhibition with detergent; P25779; purified cruzain, Z-FR-AMC fluorescence, 0.01% Triton; Potency, µM, for the others: max response, negative = inhibition, actives largely listed as inhibitors; 200,000 tested, 0.43% active; AID 1478; active means well fitted curve in the direction sought with a large enough effect; inconclusive means small, poorly fitted or top-dose-only effect, or another doubt; inactive means no such curve, though single readings can be large; an effect the other way counts as inactive or inconclusive;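 further: plate controls were neutral wells for no effect and buffer without enzyme for full effect; nearly all actives have a fitted effect of over 40% in size; top concentration of the series not given in the record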
Target sequence (P25779 123-467 limits assumed): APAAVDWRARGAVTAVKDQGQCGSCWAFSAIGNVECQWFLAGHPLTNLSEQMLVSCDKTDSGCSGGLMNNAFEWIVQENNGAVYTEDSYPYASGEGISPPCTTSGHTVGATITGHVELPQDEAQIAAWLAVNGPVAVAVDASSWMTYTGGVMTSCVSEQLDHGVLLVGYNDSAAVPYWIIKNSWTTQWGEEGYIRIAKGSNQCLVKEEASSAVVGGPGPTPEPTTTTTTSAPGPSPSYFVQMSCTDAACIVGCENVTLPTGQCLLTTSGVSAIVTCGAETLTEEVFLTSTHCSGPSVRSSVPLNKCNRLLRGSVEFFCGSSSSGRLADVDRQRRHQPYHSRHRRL
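Detergent-containing arm of a paired screen for aggregation-based inhibition: 0.01% Triton X-100 present. Cruzain at 1.5 nM cleaved 2 uM Z-FR-AMC at pH 5.5 with 5 mM DTT; AMC fluorescence gain over 60 s measured activity.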
RE007 growth inh – less growth of the S. pombe RE007 Vpr strain | S. pombe RE007 Vpr strain, BacTiter-Glo ATP luminescence, 24 h; control for the full effect not named in the record | Potency, µM (series often up to 92.2 µM), without a hit: at the top dose activity change, negative = less growth | 360,000 tested, 0.21% active; active = well fitted falling curve with a large enough effect; inconclusive = small, poorly fitted or top-dose-only effect; inactive = no such curve, though single readings can be large or run the other way;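 further: on the % scale 0 is the no-effect control and ±100 the full control effect; nearly all actives have a fitted effect of over 50% in size; the assay follows cell death caused by Vpr and the record does not say whether a fall means rescue or toxicity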
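Fission yeast RE007 carrying one integrated HIV-1 vpr copy, seeded at OD 0.01 in PMG+AL medium with 23 nL pinned compound. Grown 24 h at 30 degrees; viability read by BacTiter-Glo luminescence after 5 min.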
NS1 inh – blocks influenza NS1 protein function; S. cerevisiae slowed by influenza A NS1, growth recovery by OD600; Potency, µM (highest dose often 46.1 µM), for inactives: top-dose activity, positive = more growth; 270,000 tested, 0.4% active; further: actives are rising curves; nearly all actives have a fitted effect of over 50% in size
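In this qHTS, NS1 from influenza A is expressed in budding yeast, where it slows growth. Cells are switched from glucose to 2% galactose medium (pH 6.0, -URA), treated with compound, and growth recovery is read at OD600.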
SARS PLP yeast – inhibitors of SARS-CoV papain-like protease in yeast | S. cerevisiae expressing SARS-CoV PLpro, growth rescue; control for the full effect not named in the record | Potency, µM (titrated, usually from 32.9 µM), for the others: top-dose activity, positive = growth rescue | 330,000 tested, 0.19% active; further: 0% is about no effect; nearly all actives have a fitted effect of over 55% in size; growth read by luminescence after 48 h
Cruzain inh noDet – blocks cruzain activity in detergent-free assay | P25779 | purified cruzain, Z-FR-AMC fluorescence, no detergent | Potency, µM, inactives show max response, negative = inhibition, most hits filed as inhibitors | 200,000 tested, 2.3% active; active means well fitted curve in the direction sought with a large enough effect; inconclusive means small, poorly fitted or top-dose-only effect, or another doubt; inactive means no such curve, though single readings can be large; an effect the other way counts as inactive or inconclusive;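 further: plate controls were enzyme without inhibitor for no effect and buffer without enzyme for full effect; nearly all actives have a fitted effect of over 40% in size; top concentration of the series not given in the record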
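Detergent-free condition (0.00005% Triton X-100) in acetate buffer pH 5.5 with DTT. 1.5 nM enzyme and compound were pre-mixed 15 min, then 2 uM Z-FR-AMC substrate added; reaction progress from fluorescence change between first and third reads (60 s).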
2A StopGo – FMDV 2A StopGo reporter, luciferase signal; human cells with a luciferase reporter of 2A StopGo recoding; control for the full effect not named in the record; 410,000 tested, 1.2% active; AID 1159524; Potency, µM (top dose mostly 57.9 µM), without a hit: top-dose signal change, negative = less light; active = well fitted falling curve with a large enough effect; inconclusive = small, poorly fitted or top-dose-only effect; inactive = no such curve, though single readings can be large or run the other way; tested in HEK293T cells; further: on the % scale 0 is the no-effect control and ±100 the full control effect; nearly all actives have a fitted effect of over 45% in size; luciferase light after 4 h
Marburg entry inh – inhibitors of Marburg virus binding or cell entry. Marburg virus pseudotyped entry inhibition, cell reporter; control for the full effect not named in the record; about a third of the inactives were read at about 46 µM. Potency, µM (doses to about 37.8 µM), for inactives: at the top dose activity change, negative = inhibition, most hits filed as inhibitors. 300,000 tested, 1.8% active; active = well fitted inhibition curve with a large enough effect; inconclusive = small, poorly fitted or top-dose-only effect, or effect the other way; inactive = flat fitted curve, though single readings scatter; tested in HEK293 cells; about a fifth of its hits are not listed in these tables; further: on the % scale 0 is the no-effect control and ±100 the full control effect; luciferase read-out
Lassa entry inh – blocks Lassa virus binding to or entry into cells | Lassa virus pseudotype entry inhibition, cell reporter; control for the full effect not named in the record | Potency, µM (highest dose often 37.9 µM), for inactives: at the top dose activity change, negative = inhibition, most hits filed as inhibitors | 300,000 tested, 1.2% active | AID 540256; active means well fitted inhibition curve with a large enough effect; inconclusive means small, poorly fitted or top-dose-only effect, or effect the other way; inactive means flat fitted curve, though single readings scatter; tested in HEK293 cells; further: on the % scale 0 is the no-effect control and ±100 the full control effect; nearly all actives have a fitted effect of over 50% in size; luciferase read-out
Numbers without * were called inactive; ? = inconclusive; . = no result given; [ ] = remark or other dose. Unless noted, the call rests on the fitted dose curve; in most records, active means well fitted rising curve with a large enough effect; inconclusive means small, poorly fitted or top-dose-only effect; inactive means no such curve, though single readings can be large or run the other way. Potency means the concentration at half of the fitted maximal effect.

SMILES	Cruzain Triton	RE007 growth inh	NS1 inh	SARS PLP yeast	Cruzain inh noDet	2A StopGo	Marburg entry inh	Lassa entry inh
COc1ccc(OCC(=O)Nc2ccc3c(c2)nc(CN2CCN(C(C)=O)CC2)n3C)cc1	.	1%	10%	1%	.	?	?	-10%
Cc1ccc(-c2nc3c(c(SCC(=O)N4CCOCC4)n2)Cc2c(CO)cnc(C)c2O3)cc1	.	10%	16%	0%	.	8%	.	.
CC1(C)C(=S)N(Cc2ccccc2)c2ccccc21	.	-1%	-4%	-4%	.	-13%	.	.
CCOc1ccc(C(=O)OCC(=O)Nc2ccc(SC(F)F)cc2)cc1OCC	-8.1%	.	3%	9%	19%	-2%	-20%	0%
CCc1nc(N)c(C#N)c(-c2cccn2C)c1C	.	0%	-10%	.	.	-18%	?	5%
CCOC(=O)CNC(=O)C1CCCc2c1[nH]c1ccc(Cl)cc21 (stereo not drawn)	.	0%	0%	-3%	.	0%	?	14%
CCOC(=O)C1(CC2CCCCO2)CCN(S(=O)(=O)c2ccc(OC)cc2)CC1 (stereo not drawn)	.	-10%	-4%	-1%	.	-16%	.	.
CCCC[C@@H]1C[C@H]1[C@@H](NC(=O)c1ccccc1)c1ccccc1C(F)(F)F	-5.8%	9%	-32%	3%	-4%	-25%	6%	-5%
Cc1c(C(=O)NCCCN2CCCC2=O)oc2ccc(S(=O)(=O)N3CCOCC3)cc12	3.3%	7%	-18%	0%	6%	3%	-7%	0%
CCCn1c(=O)c2sccc2n2c(CCCC(=O)N3CCN(c4cccc(C)c4C)CC3)nnc12	-0.5%	.	.	.	0%	16µM*	.	4%[46.1 µM]
Cc1noc(C)c1C(=O)Nc1nc(-c2ccccc2Cl)cs1	-7.8%	0%	-1%	11%	-6%	-4%	?	6%
Cc1ccc2nsnc2c1S(=O)(=O)N1CCCC1	3.3%	5%	-3%	5%	-7%	-3%	11%	2%
CCOc1ccc(NC(=S)NN(C)C(=S)Nc2ccc(OCC)cc2)cc1	-2.8%	-1%	-1%	-7%	-5%	-22%	11%	?
Cc1ccccc1COn1nnc2ccc(S(=O)(=O)N3CCOCC3)cc21	.	2%	.	-2%	.	?	-4%	-19%[46.1 µM]
COc1ccc(C(=O)Cn2c(=O)c(-c3cc(C)ccc3NC(C)=O)nc3ccccc32)cc1	-5.1%	.	.	.	-7%	1%	?	-6%[46.1 µM]
Cc1cc(-c2nnc(CCC(=O)NC(C)c3cccc4ccccc34)o2)no1 (stereo not drawn)	.	0%	1%	1%	.	13%	.	.
Cc1cc(C(C)(C)C)nc2[nH]n(-c3ccccc3)c(=O)c12	-0.7%	-14%	-2%	-4%	-7%	-28%	0%	0%
COc1ccc(CCNC(=O)c2ccc(Cl)cc2)cc1	-7.6%	8%	-53%	6%	2%	15%	?	?
COC1CCCN(C(=O)c2ccc3oc(Cc4ccc(Cl)cc4)nc3c2)C1 (stereo not drawn)	.	-2%	-9%	-6%	.	-16%	-4%[46.1 µM]	18%[46.1 µM]
Cc1ccc(CNC(=O)CSc2nnc(CNC(=O)c3ccccc3)o2)cc1	.	-2%	4%	2%	.	-19%	1%	19%
COc1ccc(CCC(=O)OCc2csc(CC(=O)Nc3ccc(C)cc3)n2)cc1OC	.	-6%	.	0%	.	-16%	?	11%
Cc1cccc(C(C(=O)NC2CCCC2)N(Cc2cccnc2)C(=O)c2csnn2)c1 (stereo not drawn)	.	3%	14%	2%	.	-11%	-4%[46.1 µM]	-8%[46.1 µM]
CCC1CCCCN1C(=O)CSc1nc2c([nH]c3ccccc32)c(=O)n1-c1cccc(OC)c1 (stereo not drawn)	-5.9%	.	.	.	-8%	-12%	.	?
CC(C)(C)c1ccccc1N=Cc1ccc2ccccc2n1	-4.5%	-2%	-6%	3%	8%	3%	-7%	-2%
COc1cc2c(cc1OC)C(COc1ccc(F)cc1)N(C(=O)c1ccc(S(=O)(=O)N3CCCC3)cc1)CC2 (stereo not drawn)	0.6%	.	.	.	?	-15%	.	-26%[46.1 µM]
O=C(C1CCCN(S(=O)(=O)c2cccs2)C1)N1CCC(N2CCCCC2)CC1 (stereo not drawn)	4.4%	-9%	5%	0%	?	-10%	.	.
CC(=O)N(c1ccccc1)C1CCCC1	-1.0%	-5%	0%	13%	-5%	-10%	3%	13%
CC(=O)N1c2ccc(S(=O)(=O)NCC3CCC(C(=O)NC4CCCCC4C)CC3)cc2CC1C (stereo not drawn)	.	-7%	-15%	1%	.	-19%	-19%[46.1 µM]	-17%[46.1 µM]
C/C(=N\Nc1ccc(S(N)(=O)=O)cc1[N+](=O)[O-])c1ccccc1O	.	1%	2%	-1%	.	-3%	-24%[46.1 µM]	-22%
O=C(COc1ccc2c(c1)CCC2)N1CCc2ccccc21	0.2%	-2%	-20%	0%	2%	44%[activator]	0%	-16%

Given bar-delimited: two of the compounds above
Compound | Cruzain Triton | RE007 growth inh | NS1 inh | SARS PLP yeast | Cruzain inh noDet | 2A StopGo | Marburg entry inh | Lassa entry inh
Cc1ccc(CNC(=O)CSc2nnc(CNC(=O)c3ccccc3)o2)cc1 | . | -2% | 4% | 2% | . | -19% | 1% | 19%
COc1ccc(CCC(=O)OCc2csc(CC(=O)Nc3ccc(C)cc3)n2)cc1OC | . | -6% | . | 0% | . | -16% | ? | 11%

Continued.
SMILES	Cruzain Triton	RE007 growth inh	NS1 inh	SARS PLP yeast	Cruzain inh noDet	2A StopGo	Marburg entry inh	Lassa entry inh
O=C(CC1N=C2c3ccccc3N=C(SCC(=O)Nc3ccc(F)cc3)N2C1=O)NCc1ccco1 (stereo not drawn)	-1.2%	.	.	.	5%	?	.	6%[46.1 µM]
CC1(C)Cc2c(sc(NC(=O)C(=O)N3CCCCC3)c2C(=O)O)CO1	.	-15%	14%	9%	.	-8%	.	.
COCCNC(=O)CNC(=O)c1nn(-c2ccc(OC)c(Cl)c2)c(=O)c2ccccc12	2.7%	7%	1%	-9%	?	-13%	8%	0%
COc1cccc(C(=O)O/N=C(\N)Cc2ccc(Cl)cc2)c1	-5.4%	?	-71%	-96%	-2%	-17%	-16%	-6%
CCOc1cc(C(=O)Nc2ccc(C)cc2C)ccc1OCC(=O)N1CCCCC1	-5.3%	2%	6%	-22%	7%	-6%	-14%	-18%
Cc1cccc(N2C(=O)CC(Sc3nnc(C)s3)C2=O)c1 (stereo not drawn)	-1.0%	35µM*	-34%	-124%	4%	?	-24%	10%
COc1cc(C(=O)NCc2cccnc2)ccc1OCC(=O)Nc1cccc(C(F)(F)F)c1	.	7%	.	1%	.	11µM*	?	?
CCCNC(=S)NC1CCCC1	5.6%	6%	-7%	27%	7%	3%	9%	26%
CCn1c2ccccc2c2nnc(SCN3C(=O)c4ccccc4C3=O)nc21	.	16%	10%	.	.	?	1%[46.1 µM]	21%[46.1 µM]
CC(NS(=O)(=O)c1ccc(Br)cc1)c1ccccc1 (stereo not drawn)	.	3%	-14%	-13%	.	18%	0%[46.1 µM]	6%[46.1 µM]
Cc1nnc2n1N=C(c1ccc3c(c1)NC(=O)CO3)CS2	.	-3%	7%	1%	.	21%	.	.
COc1cc(OC)c(C(=O)NNC(=S)NC2CCCCC2)cc1OC	-2.1%	-8%	4%	10%	-1%	-14%	16%	-9%
COc1ccc(CCNC(=O)CCNC(=O)c2ccccc2Cl)cc1	.	0%	5%	2%	.	1%	24%[46.1 µM]	7%
COc1ccc(OC)c(C2C(C(C)=O)=C(O)C(=O)N2CCC(=O)O)c1 (stereo not drawn)	0.0%	7%	5%	0%	-4%	.	1%	26%
COc1ccc(NCc2ccc(OC)c(Cn3ccnc3)c2)c(OC)c1	.	-21%	-41%	0%	.	-17%	-18%	?
O=C(Nc1ccc2nc(SCC(=O)N3CCOCC3)sc2c1)c1ccccc1Cl	-7.1%	.	.	.	-1%	?	14%[46.1 µM]	3%[46.1 µM]
NP(=O)(OCCCc1ccccc1)c1ccccc1 (stereo not drawn)	.	-14%	9%	-4%	.	-9%	.	.
COc1cc(NC(=O)CSc2nnc3ccc(-c4cccnc4)nn23)cc(OC)c1	.	6%	.	0%	.	-16%	-19%	?
CC1CC(C)CN(C(=O)CCCn2c(=O)c3cccn3c3cccnc32)C1 (stereo not drawn)	.	4%	-1%	-2%	.	-9%	.	.
CCN1CCN(c2ncc3c(n2)CC(c2ccccc2O)CC3=O)CC1 (stereo not drawn)	-0.6%	.	.	.	0%	-15%	.	?
Cc1cc(C(=O)OCC(=O)Nc2ccc(F)cc2)c(C)o1	1.5%	16%	-43%	-3%	-14%	1%	?	0%
CC(C)(C)N1C(=O)c2ccc(C(=O)O)cc2C1=O	7.0%	-10%	-4%	4%	-2%	16%	19%	-5%
O=C1c2ccccc2CC1(Cc1ccccc1)Cc1ccccc1	-6.2%	17%	-14%	-37%	-2%	-1%	-17%	?
COc1ccc(CC(=O)N2CCN(c3ccc(F)cc3)CC2)cc1	.	-3%	27%	3%	.	-14%	0%[46.1 µM]	2%[46.1 µM]
O=C(CS(=O)(=O)c1ccc(F)cc1)N1CCOCC1	.	0%	1%	-4%	.	-6%	7%[46.1 µM]	18%[46.1 µM]
COc1ccc(Nc2nnc(-c3ccc(O)cc3)c3ccccc23)cc1	.	23%	0%	0%	.	-19%	.	.
CCOc1ccc(Br)cc1S(=O)(=O)Nc1cccc(S(=O)(=O)N(CC)CC)c1	-6.4%	-7%	1%	-9%	-4%	60%[activator]	-8%	?
COc1ccc(C2=Nn3c(nnc3-c3ccncc3)SC2)cc1OC	-10%	-17%	5%	2%	-5%	10%	?	?
CC1CCCCN1CCCNc1ccc(C(CC(N)=O)NC(=O)c2ccccc2)cc1[N+](=O)[O-] (stereo not drawn)	.	-9%	11%	2%	.	-20%	.	.
COc1ccc(OC)c(N(CC(=O)NCc2ccccn2)S(C)(=O)=O)c1	1.0%	5%	-2%	-3%	5%	30%	0%	4%
COc1ccccc1NC(=O)CN(C)S(=O)(=O)c1ccc2c(c1)c(=O)n(C)c(=O)n2C	1.7%	.	.	.	-1%	-3%	-3%[46.1 µM]	6%[46.1 µM]
O=C(CCSc1ccccc1)NCC1CCCO1 (stereo not drawn)	5.1%	-1%	-11%	3%	1%	35%[activator]	5%	4%
